Screening results (PubChem BioAssay)
GIV Gai3 FP: inhibitors of GIV peptide binding to Galpha-i3, primary screen, biochemical, fluorescence polarization, FITC-GIV GBA peptide, rat Galphai3; Guanine nucleotide-binding protein G(i) subunit alpha-3 (Rattus norvegicus), P08753; 90 min; stronger effect = lower value; scaled: aluminum fluoride 0%, vehicle 100%; percent of control (FP), % (no concentration beside the values); hit rate 0.42% among 210,000; AID 1224905, 2016;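 active = replicate mean at 85% of control or lower, very high polarization wells dropped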;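 also: wells of about 15 µL received 100 nL stock; the first replicate is given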
Target sequence (P08753 whole entry, looked up): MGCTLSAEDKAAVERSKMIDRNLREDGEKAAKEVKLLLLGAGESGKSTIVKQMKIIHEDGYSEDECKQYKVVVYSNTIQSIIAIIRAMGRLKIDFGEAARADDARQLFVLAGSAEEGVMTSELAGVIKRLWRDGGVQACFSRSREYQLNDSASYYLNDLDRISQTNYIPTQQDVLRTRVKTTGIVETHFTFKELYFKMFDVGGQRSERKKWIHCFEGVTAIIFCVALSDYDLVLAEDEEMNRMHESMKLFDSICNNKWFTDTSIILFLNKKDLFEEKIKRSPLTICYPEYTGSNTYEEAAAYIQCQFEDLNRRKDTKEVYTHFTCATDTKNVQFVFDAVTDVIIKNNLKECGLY
Sa growth 42C: S. aureus growth inhibition at 42 and 30 °C, primary screen, LtaS inhibitor project, RN4220, two temperatures | OD600, 20 h, 42 °C; stronger effect = lower value | AID 720641, 2013 | hit rate 0.53% among 170,000 | relative growth, % (concentration not given with the values);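 active = growth at 42 °C up to 50% and 20 or more points under that at 30 °C, or under 10% at both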;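 also: 300 nL library stock went into each well; scaled to the means of positive and negative controls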
HCMV NEC inh: inhibitors of HCMV UL50-UL53 interaction, biochemical, HTRF. inhibition, % (no concentration beside the values). hit rate 0.15% among 190,000. normalized percent inhibition;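 active = both replicates at 50% or more, plus weaker picks with an unusually low signal ratio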;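 also: stock transfer was 100 nL into about 20 µL; 0% = negative control wells and 100% = wells with untagged competitor protein; inactives centre near -12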
Sa growth 42C second temp: second read-out of Sa growth 42C, no call of its own (marks repeat the call); relative growth, %; measured here: growth at 30 °C;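 optical density after 20 h as mean of two plates; 100% = untreated growth and lower means inhibition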
Starred values were filed as active, the others as inactive; · = no result given; & = joins results of further samples.

SMILES	GIV Gai3 FP	Sa growth 42C	Sa growth 42C second temp	HCMV NEC inh
Cc1ccc(S(=O)(=O)Nc2cc3c(cc2Cl)n(C)c(=O)c(=O)n3C)cc1	102	93	82	-21
CC(C)Oc1ccc(C(CC(=O)NC2CCOC(C)(C)C2)c2ccccc2)cc1 (stereo not given)	99	94	98	-3
NC(=O)c1ccccc1NC(=O)c1c(Cl)nc2sccn12	·	122	83	-33
Cc1ccc(C)c(C(C)c2ccc(C)nc2)c1 (stereo not given)	104	82	91	5
CCC(Sc1nc2cc(OC)c(OC)cc2c(=O)n1Cc1ccc(Cl)cc1)C(=O)NCCOC (stereo not given)	101	110	86	·
CCNS(=O)(=O)c1ccc(CCC(=O)Nc2ccc(C(=O)OC)cc2)cc1	104	118	103	-4
Clc1ccc(C2Oc3ccccc3C3CC(c4ccco4)=NN32)cc1 (stereo not given)	132	113	100	4
CCC(C)(C)c1ccc(OC2CSC2)cc1	·	111	125	10
O=C(Nc1cccc(F)c1)C1Nc2ccc(Cl)cc2S(=O)(=O)N1 (stereo not given)	101	·	·	-14
COC(=O)c1ccc2c(=O)n(CCCCCC(=O)NCc3ccc(Cl)cc3)c(=O)[nH]c2c1	99	87	97	·
CSc1sc(-c2ccn(C(C)=O)n2)c2c1C(=O)CC(C)(C)C2	102	95	91	5
CC(C)(C)c1cc(C(c2ccccn2)N2CCCC2)cc(C(C)(C)C)c1O (stereo not given)	102	104	95	·
CC1CCCCC1NC(=O)c1nn(C)c2c1CS(=O)(=O)c1ccccc1-2 (stereo not given)	100	81	89	7
Cc1ccc(N2CC(C(=O)Nc3ccc(Cl)cc3Cl)CC2=O)cc1 (stereo not given)	109	102	89	-27
CN1C2=C(C#N)C(=O)CN2c2ccccc21	·	88	92	-21
O=C(Cc1c(C(=O)O)[nH]c2ccc(Cl)cc12)NC1CCCCC1	100	111	108	1
COc1ccccc1NC(=O)Nc1nc(CC(=O)Nc2cccc(Br)c2)cs1	108	·	·	-17
CCCn1c(=O)c2ccccc2n2c(=O)n(CC(=O)c3ccc(OC)cc3)nc12	104	·	·	-11
CCOC(=O)c1ccc(NC(=O)C(Cc2ccccc2)NS(=O)(=O)c2ccc(Br)s2)cc1 (stereo not given)	100	108	94	-10
Clc1ccc(-c2ccc(CNCCSc3nnnn3-c3ccccc3)o2)cc1	103	105	56	-15
COc1ccc(CSc2cccc[n+]2[O-])cc1F	·	103	92	-10
CCN=c1scc(-c2cc(C)c(C)cc2C)n1/N=C/c1ccc(C)o1	·	101	85	-28
c1cc(-c2nn3cnnc3s2)ccn1	107	·	·	-7
OCn1c(=S)sc2ccccc21	·	86	40	-10
CC(=O)N1CCC(O)C2CCCCC21 (stereo not given)	105	109	90	-20
O=C(Cc1ccccc1)N(Cc1cccnc1)c1nc2ccc(Cl)cc2s1	97	128	83	·
CSC1=NCCN1Cc1ccccc1	98	88	99	20
COc1ccc(C2(CNS(=O)(=O)c3ccc(C)cc3)CCOCC2)cc1	·	101	89	-1
COc1cccc(NC(=O)c2cc3cc4c5c(c3oc2=N)CCCN5CCC4)c1	-14*	94	81	-21
C[C@H]1O[C@@H](O[C@H]2[C@@H](O)C[C@H](O[C@H]3[C@@H](O)C[C@H](O[C@H]4CC[C@]5(C)C6C[C@@H](O)[C@]7(C)[C@@H](C8=CC(=O)OC8)CC[C@]7(O)C6CC[C@@H]5C4)O[C@@H]3C)O[C@@H]2C)C[C@H](O)[C@@H]1O (stereo not given in full)	·	92	99	6
COc1ncnc2c1sc1ncccc12	107	94	88	2
COCc1c(C(=O)N2CCN(CCOc3ccccc3)CC2)oc2ccccc12	·	97	85	-17
CC1Cc2ccccc2N1C(=O)CCS(=O)(=O)c1cc2c(cc1Cl)NC(=O)CO2 (stereo not given)	100	99	85	-8
CN(c1cccc(NC(=O)C2CCN(S(=O)(=O)Cc3ccccc3)CC2)c1)S(C)(=O)=O	105	·	·	-23
O=C(CCN1N=C(c2ccccc2)CCC1=O)NCCc1ccccc1	101	95	81	·
O=S(=O)(NC1CCCCC1Sc1ncccn1)c1ccccc1 (stereo not given)	·	87	92	-2
Cc1ccc(S(=O)(=O)CCSc2n[nH]c(=O)n2-c2ccc3c(c2)OCCO3)cc1	104	98	91	-10
CCOC(=O)C1=C(C)N=c2s/c(=C\c3cc(OC)c(OC)cc3[N+](=O)[O-])c(=O)n2C1c1ccc(OC)cc1 (stereo not given)	102	·	·	-9
Cc1c(C(N)=O)nnn1-c1ccc(Br)cc1	98	119	94	-19
CCC(Oc1ccccc1)C(=O)Nc1cc(-c2cccc(C)c2)nn1-c1ccccc1 (stereo not given)	108	97	89	·
COc1cc(NC(=O)Cn2ccc3ccccc3c2=O)cc(OC)c1OC	102	109	85	-15
COc1cc(C=C2C(=O)NC(=O)NC2=O)ccc1OCC(C)C	98	91	90	-3
COc1cccc2cc(-c3nc4sc5c(c4c(=O)[nH]3)CCC(C(C)(C)C)C5)c(=O)oc12 (stereo not given)	103	93	102	5
N#Cc1ccc(Oc2ccc(N3C(=O)CCC3=O)cc2)cc1	107	88	79	-31
Nc1c2c(nc3c1CCC3)CCCC2	97	92&87	85&89	-59&-29
CCC(C)(C)NC(=O)Cc1cccs1	103	103	99	-12
CC(c1ccccc1)N1CCC(CN)C1 (stereo not given)	106	111	94	1
O=C(NCC1CCCO1)c1cnn2c(C(F)(F)F)cc(-c3ccccc3)nc12 (stereo not given)	104	103	102	-17
COc1ccc(-c2cc(C(=O)Nc3ccccc3C)nn2C2CCS(=O)(=O)C2)cc1 (stereo not given)	107	·	·	-16
Cc1ccc(-c2ccc(/C=c3\sc4nc5ccccc5n4c3=O)o2)c(Br)c1	106	·	·	-10

Arranged by value in GIV Gai3 FP (lowest first): some entries from above
molecule	GIV Gai3 FP	Sa growth 42C second temp
COc1cc(C=C2C(=O)NC(=O)NC2=O)ccc1OCC(C)C	98	90
O=C(NCC1CCCO1)c1cnn2c(C(F)(F)F)cc(-c3ccccc3)nc12 (stereo not given)	104	102
COc1ccc(-c2cc(C(=O)Nc3ccccc3C)nn2C2CCS(=O)(=O)C2)cc1 (stereo not given)	107	·

(cont.)
SMILES	GIV Gai3 FP	Sa growth 42C	Sa growth 42C second temp	HCMV NEC inh
CCOC(=O)c1nc(NC2CCN(Cc3ccccc3)CC2)c2ccccc2n1	107	105	94	-25
Brc1ccc(-c2cn3ccc4ccccc4c3n2)cc1	103	·	·	-13
OC(CN1CCN(Cc2ccc3c(c2)OCO3)CC1)Oc1ccc(C(F)(F)F)cc1 (stereo not given)	103	113	88	-8
CC1CC(Nc2ccccc2)c2ccccc2N1C(=O)c1cccc(Cl)c1 (stereo not given)	103	·	·	-21
COCCN=c1scc(-c2ccc(O)c(C(N)=O)c2)n1/N=C/c1cccnc1	·	106	92	-77
Cc1cc(C)nc(-n2nc(C)c3c2NC(=O)CC3c2ccccc2OC(C)C)n1 (stereo not given)	98	95	74	-36
Cc1ccc2c(c1)c(=O)c1ccccc1n2CC(=O)N1CCN(c2ccc(F)cc2)CC1	108	·	·	-9
COc1ccc(C(=O)COC(=O)c2cccc(NC(=O)c3ccc(OC)c(OC)c3)c2)cc1	107	89	93	1
O=C(CN1C(=O)CSc2cccn2-c2ccccc21)N1CCN(c2ccccn2)CC1	106	·	·	-24
O=C(O)C(NS(=O)(=O)c1cccc2nsnc12)c1ccccc1 (stereo not given)	·	117	97	-83
CCOc1ccc(NC(=O)CN2C(=O)c3cccc4cccc2c34)cc1	102	103	94	4
O=C1CCc2ccccc2N1	·	95	100	-20
CCN(C(=O)c1cc2c(=O)oc3ccccc3c2s1)c1ccc(C)c(C)c1	107	76	94	-25
CC(C)(C)NC(=O)Cc1n[nH]c(=O)c2ccccc12	·	80	87	-27
CCn1cc(C(=O)N(C)Cc2ccccc2)c(=O)c2cc(S(=O)(=O)N3CCCCC3)ccc21	100	108	98	-5
Cc1nnc(Nc2ccc(F)cc2)c2ccccc12	104	83	84	-4
Oc1c(C(c2ccc(Cl)cc2Cl)N2CCCC2)sc2nc(-c3ccco3)nn12 (stereo not given)	102	107	94	·
CCN(CC)CCCNc1ncnc2sc3c(c12)CC(C)CC3 (stereo not given)	·	94	80	-8
CCCN(c1ccccc1F)S(=O)(=O)c1cc(-c2cc(C)no2)ccc1C	101	100	90	·
O=C(Cc1ccccc1)Nc1nc(-c2cccs2)cs1	·	105	100	-30
Nc1ccc(Cn2ccnc2)cc1	100	95	98	-13
COC(=O)c1cc(S(=O)(=O)NCC2CCCO2)c[nH]1 (stereo not given)	108	77	82	·
Cc1[nH]nc2c1C(c1cccc(F)c1F)CC(=O)N2 (stereo not given)	99	·	·	-27
CCOC(=O)c1ccc(N(C)C)cc1	108	106	97	-11
CCNC(=S)N1CCN(C(=O)C(Cc2ccccc2)NC(C)=O)CC1 (stereo not given)	103	96	93	-2
Cc1ccc(NC(=O)C2CCCN(S(=O)(=O)c3ccc4[nH]c(=O)ccc4c3)C2)nc1 (stereo not given)	105	96	87	·
Cc1nnc2sc(SCc3ccccc3)nn2c1=O	98	97	92	·
CCOc1ccc(NC(=O)C(=O)NCCc2sc(-c3ccc(C)cc3)nc2C)cc1	103	111	85	·
O=c1c2sc3ccccc3c2n(Cc2ccccc2F)c(=O)n1-c1ccccc1Cl	104	108	84	-44
COc1ccc(Cl)cc1NC(=O)c1cc2ccc3ccc(C)[nH]c3c2n1	99&103	83	94	-6
CN(C1CCCCC1)S(=O)(=O)c1ccc2c(c1)CCN2C(=O)NC1CCCCC1	99	·	·	10
CN1N=C(c2ccccc2)CC1=O	102	66	56	·
CCCNC(=O)N1[C@H](c2cccs2)[C@@H](C)C(=O)[C@@H](C)[C@@H]1c1cccs1	103	115	85	12
CC(C)CCNC(=O)C1CCN(c2ccc(-c3ccccc3)nn2)CC1	102	·	·	-37
O=C(COC(=O)c1cn(-c2ccccc2)nc1-c1ccccc1)c1ccc(Br)cc1	·	91	92	3
CCOc1ccccc1N(CC)C(=O)Cn1ncc2c(=O)oc3ccccc3c21	100	102	75	-8
CC(C)NC(=O)c1ccc(CSc2nc3ccncc3n2Cc2cccc(F)c2)cc1	102	108	90	-8
CC(NCCN1CCNCC1)c1cc(C(C)(C)C)cc2c1CCC2(C)C (stereo not given)	·	152	86	-8
CCn1c(=O)c(C(=O)O)nc2ccccc21	105	·	·	-68
Cc1nc2nc[nH]n2c(=O)c1Br	103	·	·	0
COc1ccc2oc(-c3ccc(NC(=O)c4ccc(Cl)cc4Cl)cc3)nc2c1	104	95	91	-37
CCN1Cc2cccc(CNc3ccc(C)c(Cl)c3)c2C1	111	92	73	0
COc1c2ccoc2nc2c(OC)c(OC[C@H](O)C(C)(C)O)ccc12	107	102	86	-94
COc1ccc2cc3[n+](cc2c1OC)CCc1cc2c(cc1-3)OCO2	104	·	·	-157&-126
N#CSc1ccc2nc(N)sc2c1	99	18	22	-33
CCOc1ccccc1NC(=O)CCn1cnnn1	104&105	94&113	91&96	-34
COc1ccccc1N1CCN(C(=O)c2sc3nc(C)nc(N4CCN(c5ccccn5)CC4)c3c2C)CC1	111	·	·	1
CCC1CN(C(=O)N2CCC(C(=O)NCCc3cc(OC)ccc3OC)CC2)c2ccccc2O1 (stereo not given)	105	106	86	-10
CCOc1cc(-c2noc(N)c2C#N)cc(OCC)c1OCC	108	71	84	4
CCC(C)(C)c1cnc(NC(C)=O)s1	·	100	85	-14

Remaining list, next part
SMILES	GIV Gai3 FP	Sa growth 42C	Sa growth 42C second temp	HCMV NEC inh
CCc1c(C)[nH]n2cnnc2c1=O	101	92	95	5
CNS(=O)(=O)c1cn(CC(=O)Nc2ccc(F)cc2F)cc1S(=O)(=O)NC	99&107	96	96	-2
O=C(Oc1ccccc1)c1csc(-c2cccnc2)n1	102	88	87	-9
O=C(NCCc1ccccc1)c1nnc(Cc2ccc(F)cc2)o1	103	102	87	·

In the list so far, these contain two or more sulfur atoms.
SMILES	GIV Gai3 FP	Sa growth 42C	Sa growth 42C second temp	HCMV NEC inh
CSc1sc(-c2ccn(C(C)=O)n2)c2c1C(=O)CC(C)(C)C2	102	95	91	5
CCOC(=O)c1ccc(NC(=O)C(Cc2ccccc2)NS(=O)(=O)c2ccc(Br)s2)cc1 (stereo not given)	100	108	94	-10
OCn1c(=S)sc2ccccc21	·	86	40	-10
CN(c1cccc(NC(=O)C2CCN(S(=O)(=O)Cc3ccccc3)CC2)c1)S(C)(=O)=O	105	·	·	-23
O=S(=O)(NC1CCCCC1Sc1ncccn1)c1ccccc1 (stereo not given)	·	87	92	-2
Cc1ccc(S(=O)(=O)CCSc2n[nH]c(=O)n2-c2ccc3c(c2)OCCO3)cc1	104	98	91	-10
O=C(O)C(NS(=O)(=O)c1cccc2nsnc12)c1ccccc1 (stereo not given)	·	117	97	-83
O=C(Cc1ccccc1)Nc1nc(-c2cccs2)cs1	·	105	100	-30
Cc1nnc2sc(SCc3ccccc3)nn2c1=O	98	97	92	·
CCCNC(=O)N1[C@H](c2cccs2)[C@@H](C)C(=O)[C@@H](C)[C@@H]1c1cccs1	103	115	85	12
N#CSc1ccc2nc(N)sc2c1	99	18	22	-33
CNS(=O)(=O)c1cn(CC(=O)Nc2ccc(F)cc2F)cc1S(=O)(=O)NC	99&107	96	96	-2
